Screens deposited in PubChem by several laboratories.
A1 inh: inhibitors of the anti-apoptotic protein A1, read as caspase activation; MEF A1-2A-BIM cells, Caspase-Glo 3/7 luminescence, 3 h; percent of clofoctol response, vehicle zero; caspase activation, % (test concentration not listed); hit rate 0.066% among 330,000; AID 2462;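 active means over half of replicate activation scores above 10%, or exactly half above 10 with the replicate mean above 10; inconclusive means replicate mean below 10 yet half the replicates above 10; inactive means over half of replicates below 10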;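 further: wells of about 30 µL received 50 nL stock; many hits fall short of the cut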
Calb FLC: affects C. albicans growth with fluconazole | C. albicans CaCi-2 (fluconazole-resistant clinical isolate) + fluconazole, Alamar Blue growth, 48 h | growth inhibition, % (test concentration not listed) | hit rate 0.57% among 300,000 | AID 1979;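 active means most replicates above 75%; inconclusive means exactly half above 75%; inactive means most below 75%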;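 further: all wells also contain fluconazole at 8 µg/ml as a sub-toxic cotreatment; 0% = median of DMSO wells and 100% = median of geldanamycin control wells; wells of about 8 µL received 7.5 nL stock; the first replicate is given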
Beta cell apopt: beta cell apoptosis inhibition; hit rate 0.8% among 300,000; AID 435005; protection from apoptosis, % (no concentration beside the values); INS-1E cytokine-induced death, ATP luminescence, 48 h; percent of positive-control rescue, neutral wells zero;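 active means all replicates at 75% or more, or half of them and the mean; inconclusive means half reach 75% but not the mean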;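 further: 0% = cytokine-treated negative control wells and 100% = positive control rescue; higher means more ATP so stronger rescue from cytokine killing; wells of about 40 µL received 100 nL stock; the first replicate is given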
Ecoli rRNA inh: inhibits bacterial ribosomal RNA function over humanized ribosomes. E. coli WT GFP vs humanized-ribosome RFP mutants, fluorescence, 24 h; stronger effect = lower value; DMSO median 0, no signal -100. GFP signal change (wild-type ribosome), % (concentration not given with the values). hit rate 1.6% among 350,000. AID 720706;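 active means significant combined selectivity score with lowered wild-type GFP, culture density cut under 30%, mutant RFP and density less affected; inactive means any of these conditions unmet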; further: one replicate is shown; some compounds called inactive have numbers as strong as hits
MLL AF4-AF9 inh: inhibitors of human MLL-AF4/AF9 interaction. P42568. AlphaScreen, biotin-AF4 peptide binding to FLAG-AF9. inhibition, % at 10 µM. hit rate 0.47% among 350,000. AID 651704;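 active means every replicate reaching a set inhibition limit, whatever the replicate mean, cut at about 25% in these data; inconclusive means mean inhibition reaches that limit but some replicates miss it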;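 further: 0% = plate neutral control median and 100% = total signal loss; the record names both 10 and 1 µM as test concentration; the first replicate is given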
Target sequence (P42568 whole entry, looked up): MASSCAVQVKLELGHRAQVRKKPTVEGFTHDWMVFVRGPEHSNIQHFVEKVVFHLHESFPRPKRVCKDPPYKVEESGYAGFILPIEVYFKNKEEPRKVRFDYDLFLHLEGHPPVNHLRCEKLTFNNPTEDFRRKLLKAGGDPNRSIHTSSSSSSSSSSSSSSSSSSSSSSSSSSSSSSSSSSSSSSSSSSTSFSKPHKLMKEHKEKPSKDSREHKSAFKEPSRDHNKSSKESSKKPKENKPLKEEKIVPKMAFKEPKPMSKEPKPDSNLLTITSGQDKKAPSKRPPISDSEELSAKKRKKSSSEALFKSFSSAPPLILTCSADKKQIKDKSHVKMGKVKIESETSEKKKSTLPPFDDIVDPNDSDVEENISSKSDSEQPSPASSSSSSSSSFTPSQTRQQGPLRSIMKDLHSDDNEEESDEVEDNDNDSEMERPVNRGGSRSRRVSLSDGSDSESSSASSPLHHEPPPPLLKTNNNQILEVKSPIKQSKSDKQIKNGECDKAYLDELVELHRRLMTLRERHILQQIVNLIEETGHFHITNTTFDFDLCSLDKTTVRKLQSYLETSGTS
T cruzi repl: blocks replication of Trypanosoma cruzi | hit rate 1.4% among 300,000 | AID 1885 | T. cruzi beta-gal in NIH3T3, luminescence, 90 h | inhibition, % (test concentration not listed);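 active means mean inhibition across valid replicates above about 55%, limit read from the data; inconclusive means mean below that limit but half or more replicates reach it; inactive means mean below it, under half of replicates reach it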;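 further: signal also drops with host cell toxicity which is not excluded here; 0% = plate median of DMSO wells and 100% = zero luminescence signal; higher percent means less beta-gal luminescence so fewer parasites; stock transfer was 50 nL into about 50 µL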
Vif TR-FRET: inhibitors of Vif binding to APOBEC3G peptide, primary screen, biochemical, TR-FRET, GST-Vif 1-94, biotin-A3G peptide, dose response retest (AID 1117319). TR-FRET GST-Vif / biotin-A3G peptide binding; higher % means a stronger effect; test concentration not given here; strong numbers were not always called active. inhibition, %, or IC50 in µM where a hit was titrated. hit rate 0.57% among 260,000;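 active means above the screen mean plus three standard deviations and confirmed in dose response; inconclusive means results disagree or hit not tested in dose response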;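 further: Vif residues 1-94 fused to GST binding biotinylated APOBEC3G peptide 110-148; 0% = full assay without inhibitor and 100% = GST in place of GST-Vif; retest series ran down from 100 µM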
RanGTP-Impb inh: inhibitors of RanGTP-importin-beta interaction, primary screen, biochemical, FRET, CFP-Ran, YFP-importin-beta, homogeneous | AID 2216 | hit rate 1.1% among 300,000 | cell-free CFP-Ran/YFP-importin-beta FRET ratio | inhibition, % (no concentration beside the values);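 active means most replicates above 15%; inconclusive means exactly half above 15%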;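 further: 0% = DMSO wells and 100% = Ran loaded with GDP instead of GTP; wells of about 40 µL received 100 nL stock; the first replicate is given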
Ecoli rRNA inh OD600: recorded beside Ecoli rRNA inh, whose call it bears; OD600 change, %; measured here: OD600 growth;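 optical density of the mix in the first replicate; 0 = DMSO median and -100 = no signal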
Ecoli rRNA inh RFP: also measured in Ecoli rRNA inh; calls as there; RFP signal change, %; measured here: RFP humanized mutant strains;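 first replicate; 0 = DMSO median and -100 = no signal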
Numbers without * were called inactive; ? = inconclusive; · = not tested or not shown; & = joins results of further samples.

#	molecule	A1 inh	Calb FLC	Beta cell apopt	Ecoli rRNA inh	Ecoli rRNA inh OD600	Ecoli rRNA inh RFP	MLL AF4-AF9 inh	T cruzi repl	Vif TR-FRET	RanGTP-Impb inh
1	CCCn1c(CCC(=O)O)nc2cc(S(=O)(=O)N3CCCC3)ccc21	0.4	4	-3	3	-1	-4.2	-3.1	-3	?	1.5
2	CN1CCNC(=O)C1CC(=O)O (stereo unspecified)	-0.5	-3	0	·	·	·	·	-17	3%	5.2
3	O=C(CN1CCN(c2ccccn2)CC1)Nc1ccccc1F	0.0	-9	-3	8	2	-2.4	-30	-1	·	-1.9
4	COc1ccc(S(=O)(=O)N(C)CC(=O)Nc2ccc(F)cc2)cc1	2.1	29	2	0	16	1.2	-0.2	-4	-2%	3.5
5	CCOC(=O)C1=C(c2ccccc2)NC(=O)NC1c1ccc(O)c(Cl)c1 (stereo unspecified)	-0.7	-1	·	0	-9	3.5	-0.8	2	0%	2.2
6	N#CC(=C=[N-])c1nc2ccccc2nc1-[n+]1ccccc1	-0.5&-0.5	-2&8	-12&-4	12	2	1.8	1.3	-12&-3	33%&7%	-2.7&1.6
7	Cc1cc(C)n(C(=O)CCCCCCCCC(=O)n2nc(C)cc2C)n1	-0.9	29	-10	·	·	·	·	-6	-3%	0.3
8	Cc1ccc(NC(=O)C(=O)c2ccc(C)cc2)cc1	-4.3	-4	8	-7	-10	0.8	0.7	-16	·	0.7
9	CN(C)CCNc1oc(-c2ccccc2F)nc1C#N	1.0	-3	-4	8	8	0.9	0.8	-12	2%	-10
10	Cc1cc(/C=C2\SC(=S)N(C)C2=O)c(C)n1-c1cccc(O)c1	-4.1	2	-1	8	8	6.8	14	10	31%	36*
11	COc1ccccc1NC(=O)c1ccc2c(c1)N(CC(=O)NC(C)C)C(=O)C(C)(C)O2	-0.7	-3	-5	4	6	-2.3	-1.3	16	·	0.2
12	Cc1ccc(Sc2c([N+](=O)[O-])c(=O)n(C)c3ccccc23)cc1	3.7	-1	-3	21	25	3.3	-1.5	39	·	-14
13	CC(C)Cn1c2ccccc2c2cc(C(=O)O)ccc21	0.4	46	-1	·	·	·	·	-16	20%	2.1
14	CCOC(=O)c1[nH]c(C)c(C(=O)Nc2ccc(C)c(F)c2)c1C	0.4	8	4	·	·	·	-2.5	-28	3%	-3.9
15	C[C@H](N)C(=O)OCc1ccc([N+](=O)[O-])cc1	-0.1	-15	1	20	10	3.3	-3.2	-3	1%	1.4
16	O=C(O)COc1ccccc1C1C2C(=O)N(c3ccccc3)C(=O)C2ON1c1ccccc1 (stereo unspecified)	0.8	18	5	·	·	·	·	-13	15%	0.4
17	CN(C(=O)c1ccc(NC(=O)C2CCCN(C(=O)OC(C)(C)C)C2)cc1)C1CCCCC1 (stereo unspecified)	2.8	·	1	-2	3	1.1	5.1	·	·	·
18	COc1ccccc1CNC(=O)COC(=O)CCC(=O)c1cccs1	0.8	21	1	-1	-1	-0.4	-0.4	-3	10%	2.1
19	O=C(Cn1cc(C(=O)c2cccs2)c2ccccc21)NC1CCCCC1	0.2	10	·	·	·	·	·	9	2%	3.0
20	O=c1c2c3c(sc2ncn1/N=C/c1ccco1)CCCC3	-0.5	-20	-4	3	-8	-4.7	5.7	-2	?	?
21	CCOC(=O)CN1N=C(/C=C/c2ccc(OC)cc2)CCC1=O	-0.9	-12	-6	·	·	·	·	-4	2%	-0.7
22	COc1ccc(NC(=S)NCC2CCCO2)c(OC)c1 (stereo unspecified)	0.5	-2	·	·	·	·	·	1	-7%	3.0
23	COc1cccc(C(C(=O)NC2CCCC2)N(Cc2ccccc2OC)C(=O)c2ccco2)c1 (stereo unspecified)	0.2	3	6	·	·	·	·	11	13%	0.9
24	O=C(CCC(=O)Nc1ccccc1Cl)NNC(=O)Nc1cccc([N+](=O)[O-])c1	-0.1	0	1	-3	4	0.8	-1.8	-21	-2%	1.7
25	Cc1c([N+](=O)[O-])c(C(=O)Sc2ccc(Br)cc2)nn1C	0.7	-4	-2	11	-16	-0.2	-2.2	11	16%	-3.4
26	CN(C(=O)c1cccc(C#N)c1)c1nnc(-c2ccccn2)s1	-0.2	8	-4	·	·	·	·	-12	-22%	-4.4
27	C=CCOc1c(Br)cc(CNc2nccs2)cc1OC	0.9	-21	-6	·	·	·	·	-4	-6%	-2.4
28	Cc1ccc(Cl)cc1N1CCN(CC(O)COCc2ccco2)CC1 (stereo unspecified)	1.1	-38	0	·	·	·	·	23	?	-1.9
29	Cc1cccc2c(C(=O)N3CCCCC3)cc(-c3ccccc3)nc12	-0.1	6	-1	-10	-56	13	0.1	15	·	4.8
30	COc1ccc(/C=N/N(C)C2=NCCN2)c(OC)c1OC	0.3	-1	4	-20	-33	-6.9	0.3	2	-7%	2.8
31	CCN(CC(=O)Nc1c(F)cccc1F)C(=O)c1nn(C)c(=O)c2ccccc12	-0.5	·	-1	2	10	-1.4	1.9	·	-13%	·
32	Cc1ccc(NC(=O)CSc2nc3c(c(=O)[nH]2)CCC3)c(C)c1	-0.8	0	-1	5	-1	0.0	2.9	-10	·	3.2
33	CCc1nnc(NC(=O)c2ccc(Br)c(S(=O)(=O)N3CCOCC3)c2)s1	0.1	0	-7	5	4	2.2	-0.6	-22	·	4.9
34	CC(=O)c1ccc(Nc2cc(C)nc3ccccc23)cc1	0.0	6	·	22	5	0.5	-0.6	26	-10%	4.3
35	Cc1nonc1CC(=O)N1CCCC(C(=O)c2cccc(C(F)(F)F)c2)C1 (stereo unspecified)	-0.3	-7	-6	9	13	-0.2	-0.3	14	-2%	3.4
36	COc1cc2cc(CN(CCc3ccccc3C)C(=S)NCCCN(C)C)c(=O)[nH]c2cc1OC	0.8	-6	1	·	·	·	·	13	·	-4.9
37	CCOc1ccc2nnnn2n1	-0.3	-7	1	·	·	·	·	16	1%	-1.8
38	COc1ccc(/C=C2\SC(=S)N(CCC(=O)NCCCn3ccnc3)C2=O)cc1	-0.3	-1	-14	-10	6	-0.7	1.0	-7	-11%	2.2
39	COc1cccc(C(=O)OCc2ccccc2C#N)c1O	-1.4	13	1	·	·	·	·	-8	0%	?
40	Cc1ccc2c(c1)NCCO2	0.9	-30	4	·	·	·	·	8	15%	-0.4
41	CCN(Cc1ccncc1)Cc1ccc(OC)cc1OC	-1.4	0	-3	5	12	0.0	0.1	6	-1%	1.7
42	Cc1cc(C)cc(NC(=O)c2cc(C)nn2C)c1	1.5	-14	4	·	·	·	·	-9	-4%	0.1
43	COc1ccc(Cl)cc1NS(=O)(=O)c1cccc(C(=O)NCC2CCCO2)c1 (stereo unspecified)	0.3	-1	·	-13	-22	1.2	-1.9	4	·	-2.0
44	O=C1c2cccc3cccc(c23)C(=O)N1CCCN(C(=O)c1cccs1)c1cccc(F)c1	0.6	16	6	·	·	·	·	-8	5%	3.8
45	CC(=O)Nc1ccc(S(=O)(=O)N(C)CC(=O)OC(C)C(=O)NC2CCCC2)cc1 (stereo unspecified)	0.4	7	-2	10	3	0.6	-0.5	-5	2%	-1.9
46	CC(=O)N1CCC(c2c[nH]c3ccccc23)CC1	0.5	7	-5	1	3	5.5	1.0	-10	-18%	3.2
47	O=C(O)C1CSC(c2ccccc2Cl)N1C(=O)c1ccc(Cl)cc1 (stereo unspecified)	0.1	16	-7	·	·	·	·	-6	8%	0.2
48	COC(=O)c1ccc(CNC(=O)C23CC4CC(CC(C4)C2)C3)cc1	0.0	-39	4	-5	-7	4.6	0.0	-3	·	8.2
49	COc1ccc(NC(=O)CN(C)C(=O)c2cccc3ccccc23)cc1	0.7	6	1	6	6	0.8	5.4	-4	4%	-2.5
50	COc1ccc(C(=O)NC(=S)N2CCOCC2)cc1OC	0.7	2	2	17	9	-1.9	-1.4	-17	6%	-2.0
51	Cc1cc([N+](=O)[O-])cc(/C=N\NC(=O)C2COc3ccccc3O2)c1O (stereo unspecified)	-3.5	-45	8	-9	-6	3.8	11	-1	23%	3.0
52	Cc1cc(C)nc(CCNC(=O)c2cc(COc3c(C)cccc3C)on2)n1	0.4	5	1	1	-10	3.8	-9.8	-1	1%	-0.5
53	COc1cc(NC(=O)C/C(C)=N/NC(=O)c2cccs2)c(OC)cc1Cl	1.2	-9	4	14	9	5.8	-7.8	7	10%	-0.9
54	O=CN1CCN(C2CC(=O)N(c3ccc4c(c3)OCO4)C2=O)CC1 (stereo unspecified)	1.2	-16	-3	·	·	·	·	-3	11%	-4.0
55	CCOCCCN(C)C1CCN(C(=O)c2oc3ccccc3c2NC(=O)Cc2cccc([N+](=O)[O-])c2)CC1	0.5	-4	-6	9	12	5.3	-1.1	9	·	1.9
56	O=S(=O)(Nc1ccccn1)c1cc(Cl)ccc1Cl	-1.4	-6	-3	8	8	-1.2	-6.6	3	-6%	1.1
57	COc1ccc(NC(=O)c2ccc(-c3ccc(OC)cc3)s2)cc1	-0.4	13	2	14	13	-1.7	0.4	-18	-4%	1.0
58	c1ccc2cc(OCCN3CCCC3)ccc2c1	-0.5	-12	·	·	·	·	·	44	-2%	2.6
59	Oc1ccc(/C=N/Nc2ncc(Br)cn2)c(O)c1	-8.7	2	87*	·	·	·	·	-8	33%	3.5

These rows are one share of the data; rates above refer to the full screens.
